Screens as filed in PubChem.
Biofilm kill mix: clotrimazole potentiators killing C. albicans biofilm, primary screen, 4-compound mixtures. C. albicans biofilm persisters + clotrimazole, fluorescence viability; primary screen in compound mixtures of four per well. inhibition, % at 7.6 µM. 0.02% of 120,000 active;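 active = inhibition above 30.3% in the primary screen of four-compound pools, then above 30% when the compound was retested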;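 also: compounds exposed to preformed 24 h biofilms for 48 h; the number belongs to the whole pool; some results filed as inactive read as strong as hits; inactives centre near 12; 0% = biofilm with clotrimazole alone and 100% = kill control; retested singly at about 60 µM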
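System: C. albicans CAF4-2 wild-type biofilms; Medium: RPMI/MOPS medium, pH 7.0; Reagent: Clotrimazole, 50 µg/mL; Times: biofilm formation 24 h, compound exposure 48 h, 37 °C; Detection: 2-h Alamar Blue fluorescence, 535/590 nm excitation/emission; Evaluation: percent inhibition of biofilm viability.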
* hit, by the source's call. This is a subset; the hit share may differ from the screen's.

entry	SMILES	Biofilm kill mix
1	COc1ccccc1N1CCN(C(=O)c2oc3ccc(Br)cc3c2C)CC1	7
2	CCN(CC)C(=O)C1CCCN(c2ccc([N+](=O)[O-])cc2)C1 (centres undefined)	24
3	COc1cc(C(=O)NCCC(C)C)ccc1OCc1ccc(Cl)cc1Cl	10
4	O=C(CSc1nc2ccc([N+](=O)[O-])cc2[nH]1)NC1CCCCCC1	7
5	CN(C)c1ccc(/C=N/O)cc1	21
6	CC1CCC(C(C)C)C(OC(=O)C[n+]2cc(-c3ccc(Cl)cc3)n3c2CCCCC3)C1 (centres undefined)	16
7	COC(=O)c1cc(NC(=O)c2cc(C(C)(C)C)nn2Cc2cccc(C)c2)ccc1N1CCOCC1	21
8	C[C@@H]1C=C(C(=O)N2CCN(Cc3ccc4c(c3)OCO4)CC2)O[C@H](OCCCCO)C1	15
9	Cc1ccc(/C=C/C(=O)Nc2nccs2)o1	15
10	O=C(NCCCCc1ccccc1)c1ccccc1	10
11	CC(Oc1cc(F)ccc1[N+](=O)[O-])C(=O)Nc1ccc(S(=O)(=O)N2CCCC2)cc1 (centres undefined)	9
12	O=C(N[C@@H](c1ccccc1)[C@@H]1C[C@H]1C(=O)NCc1ccccn1)OCc1ccccc1	17
13	COc1ccc(CCNC(=O)Cn2ccc3c(OC)cccc3c2=O)cc1OC	17
14	CC12CCC(C1)C(C)(C)C2OC(=O)c1ccccc1C(=O)O (centres undefined)	11
15	COc1ccc(N2C(=O)C(Cl)=C(Nc3ccc(OC)cc3OC)C2=O)cc1	-9
16	COc1cccc(NC(=O)N2CCCC2C(=O)NCc2ccccc2F)c1 (centres undefined)	-1
17	Cc1ccc(Cc2cc(-c3ccc(C)cc3)n[nH]c2=O)cc1	22
18	C/C(CCc1ccccc1)=N\NC(=O)C(=O)Nc1cccc(Cl)c1	17
19	COc1ccc2nc(C)cc(Nc3ccccc3O)c2c1	-7
20	CC12CN3CC(C)(CN(C1)C3c1ccccc1)C2O (centres undefined)	17
21	COCCNC(=S)N/N=C(\C)c1ccc(Cl)c(Cl)c1	15
22	CCCCCCCCNC(=O)c1cccnc1SCC(=O)Nc1ccccc1OC	12
23	CCOC(=O)c1cc(=O)c2ccc(OCC(=O)Nc3ccc(F)cc3)cc2o1	13
24	O=C(CN1CCCC1)N1c2ccccc2C=Cc2ccccc21	-9
25	COc1ccc(NC(=O)/C(C#N)=C/c2ncc([N+](=O)[O-])n2C)c(OC)c1	3
26	CN(NC(=O)c1ccccc1Cl)c1ncc(C(F)(F)F)cc1Cl	11
27	CC(CC(=O)O)n1nnc2ccccc21 (centres undefined)	27
28	COc1ccc(C(CCNCc2ccc(N(C)C)cc2)C(C)C)cc1 (centres undefined)	8
29	COc1ccc([N+](=O)[O-])c2c(=O)ccoc12	7
30	Nc1cc(=O)[nH]c(SCC(=O)N2N=C(c3ccc(Cl)cc3)CC2c2ccco2)n1 (centres undefined)	1
31	O=[N+]([O-])c1cccc(/C=N/n2cnnc2)c1	20
32	S=C(NCc1ccncc1)NC1CCCC1	7
33	Cc1nc2cc(-c3cccc(F)c3)nn2c(C)c1CCC(=O)NC(C)c1ccc2c(c1)OCCO2 (centres undefined)	17
34	O=C(NC1CCCCC1)c1ccccc1NC(=O)C1CC(=O)N(c2ccc(Cl)cc2)C1 (centres undefined)	14
35	c1ccc(-c2noc(CC3CCCCC3)n2)nc1	2
36	COc1ccccc1NC(=O)Nc1ccccc1Br	10
37	C/C(Cc1ccccc1)=N\NC(=O)CNC(=O)c1ccc2c(c1)OCCO2	21
38	Cc1ccc(OP(=O)(Nc2c(C)n(C)n(-c3ccccc3)c2=O)Oc2ccc(C)cc2)cc1	-15
39	CC(C)OC(=O)c1ccc(NC(=O)Cn2c(-c3nonc3N)nc3ccccc32)cc1	17
40	Cc1ccccc1C(=O)NC1CCN(CC(=O)NCc2cccs2)CC1	19
41	COCCN1C(=O)N[C@@H](c2ccco2)C(C(C)=O)=C1C	8
42	COc1ccc(-n2c(SCC(=O)c3ccc[nH]3)nnc2-c2ccccc2)cc1	-5
43	CNCC(O)C(O)C(O)C(O)CO (centres undefined)	19
44	C=CCn1cnc2c(nnn2-c2ccc(Cl)cc2)c1=O	13
45	O=[N+]([O-])c1ccc(CSc2ncnc3ccccc23)cc1	19
46	Cc1cccc(NC(=S)NCCc2ccc(S(N)(=O)=O)cc2)c1C	7
47	CC(C)C(NC(=O)c1ccc(C(C)(C)C)cc1)C(=O)NCC(c1ccccc1)N(C)C (centres undefined)	0
48	COc1ccc(N(CC(=O)N2CCN(Cc3ccc4c(c3)OCO4)CC2)S(=O)(=O)c2ccc(F)cc2)cc1	26

A different layout for three compounds above:
47. CC(C)C(NC(=O)c1ccc(C(C)(C)C)cc1)C(=O)NCC(c1ccccc1)N(C)C (centres undefined)
  Biofilm kill mix = 0

44. C=CCn1cnc2c(nnn2-c2ccc(Cl)cc2)c1=O
  Biofilm kill mix = 13

48. COc1ccc(N(CC(=O)N2CCN(Cc3ccc4c(c3)OCO4)CC2)S(=O)(=O)c2ccc(F)cc2)cc1
  Biofilm kill mix = 26

Additional records:
entry	SMILES	Biofilm kill mix
49	Cc1cc(C)n(/N=C/c2cc(Cl)cc(Cl)c2O)c(=O)c1	7
50	CCOc1ccc(-n2c(C)c(C(=O)OC)c3cc(O)ccc32)cc1	13
51	C1=CCC(CN2CCN(C3CCCCCC3)CC2)CC1 (centres undefined)	1
52	CCN(c1ccccc1)S(=O)(=O)c1ccc(Cl)c(C(=O)O)c1	3
53	COc1ccccc1/C=C/C(=O)Oc1cccc2cccnc12	5
54	CCc1cc(C(=O)N/N=C/c2c(C)[nH]c3ccccc23)cs1	9
55	CC(C)(O)C#Cc1ccc(CN2CCCC(CO)(Cc3cccc(Cl)c3)C2)cc1 (centres undefined)	5
56	CCOC(=O)c1ccccc1NC(=O)C=C(C)C	17

Looked up above:
no. 52 in Biofilm kill mix reads 3
no. 50 in Biofilm kill mix reads 13
no. 49 in Biofilm kill mix reads 7
no. 53 in Biofilm kill mix reads 5

New compounds follow:
entry	SMILES	Biofilm kill mix
57	CC(=O)Oc1cccc(N2C(=O)c3ccc(C(=O)Nc4c[nH]c(=O)[nH]c4=O)cc3C2=O)c1	7
58	COc1ccc(NC(=O)CSc2c3c(nc4ccccc24)CCC3)c(OC)c1	15
59	O=C(Cn1nnc(-c2ccc(Cl)cc2)n1)NCc1ccco1	10
60	Cc1cccc(NC(=O)c2cnc3sccn3c2=O)c1	18
61	CCn1cc(Br)c(C(=O)Nc2nccs2)n1	5
62	COc1ccc(N(C(=O)Cn2nnc3ccccc32)C(C(=O)NC(C)(C)C)c2ccc(OC)c(O)c2)cc1 (centres undefined)	17
63	O=C(c1ccccc1F)N1CCN(c2ccc([N+](=O)[O-])c(N3CCOCC3)c2)CC1	23
64	CCOC(=O)CC(=O)NC(CC(=O)OC)c1ccc(Br)cc1 (centres undefined)	11
65	OCc1nc2ccccc2n1Cc1c(F)cccc1Cl	16
66	Cc1cc(OCCCCN2C(=O)NC(C)(C)C2=O)ccc1[N+](=O)[O-]	-11
67	COc1ccc(/C=C2\N=C(C)N(c3ccc4ccccc4c3)C2=O)cc1OC	9
68	Oc1ccccc1OCCOc1ccccc1OCCOc1ccccc1O	19
69	Cc1cc(/C=C(\C#N)C(=O)Nc2ccc(Cl)cc2)c(C)n1-c1ccc(N2CCOCC2)c([N+](=O)[O-])c1	15
70	Cc1ccccc1CN1C[C@@H]2C[C@@H](c3cnc(N4CCOCC4)s3)N3CCC[C@@]23C1=O	23
71	CCOC(=O)CN(C(=O)COc1nc(-c2ccccc2)cc(C)c1C#N)c1cccc(OC)c1	16
72	Cc1ccc(-n2cc(S(=O)(=O)c3ccc(C)cc3)[nH]c2=O)cc1	13
73	O=C(O)c1ccc(Nc2ncnc3scc(-c4ccccc4)c23)cc1	17
74	COc1ccc2nc3ccccc3nc2c1NC(=O)c1ccccc1Cl	7
75	Cc1cc(C(=O)COC(=O)c2ccncc2)c(C)n1Cc1ccco1	5
76	CCN(CC)CCn1c(SCC(=O)NCCC2=CCCCC2)nc2c(sc3ccccc32)c1=O	7
77	CCC(C)(C)C1CCc2[nH]nc(C(=O)NN)c2C1 (centres undefined)	14
78	O=C(c1ccc([N+](=O)[O-])cc1)N1CCN(C(=O)c2ccco2)CC1	13
79	Cc1ccc(SCC(=O)NCCSCc2ccccc2)cc1	8
80	COc1ccc(COc2ccccc2C(N)=O)cc1F	20
81	CCCCCOc1ccc(Br)cc1/C(C)=N/NC1=NCCN1	10
82	COc1ccc(C2=CC3=C(Br)C(=O)C(C)(OC(=O)c4ccco4)C(=O)C3=CO2)cc1 (centres undefined)	3
83	COc1cc(C(=O)OCCCN(C)C)cc(OC)c1OC	20
84	Cc1cc(CN(C)C(=O)c2cc(COc3ccc4ncccc4c3)on2)on1	8
85	Oc1ccc(N=Cc2cc(Br)c(N3CCOCC3)o2)cc1	7
86	O=S(=O)(c1cc(Cl)ccc1Cl)n1cccn1	7
87	CC(=O)Nc1ccc(NC(=O)CCCc2c[nH]c3ccccc23)cc1	7
88	O=c1[nH]c2sc3c(c2c2nncn12)CCCC3	10
89	O=C(CCCc1nc2ccccc2s1)NCc1cccnc1	12
90	COc1ccc(CNS(=O)(=O)c2ccccc2Br)cc1	19
91	Cc1ccccc1NC(=S)N(CCCN1CCOCC1)Cc1ccccn1	10
92	COC(=O)N/N=C/c1ccc(/C=N/NC(=O)OC)cc1	8
93	c1ccc2c(c1)CCc1c-2nc2ccccc2c1N1CCOCC1	14
94	CCCOc1ccc2c(CC)cc(=O)oc2c1C	3
95	CC/C(C)=N/NC(=O)c1[nH]c2ccc(C)cc2c1-c1ccccc1	14
96	C#CCNC(=O)c1cc2sccc2n1C	9
97	CCOC(=O)N1CCN(CCC(=O)c2ccc(OC)cc2)CC1	10
98	COc1ccc(/C=C/C(=O)C(C(N)=O)=C2SCCS2)cc1	15
99	Cc1sc2nc(CSc3ccccc3)nc(N3CCN(C)CC3)c2c1C	9
100	Cc1ccc(NC(=O)C(C)c2ccc([N+](=O)[O-])cc2)cc1Cl (centres undefined)	-6
101	O=C(CSc1ccsc1[N+](=O)[O-])NC1CCCC1	10
102	C/C(=C\c1ccco1)CN1CCC(N2CCC(C(=O)N3CCOCC3)CC2)CC1	17
103	Cn1cc(Br)c(C(=O)NC2C3CC4CC(C3)CC2C4)n1 (centres undefined)	15
104	Cc1ccc(Cl)cc1NC(=S)NCc1cccn1C	13
105	NNC(=O)c1ccc(O)cc1O	6
106	Cc1cccc(COc2ccc(/C=N/NC(=O)c3nnn(-c4nonc4N)c3COc3ccc(F)cc3)cc2)c1	15
107	O=c1/c(=C\c2cccc(O)c2)sc2nc(-c3ccccc3)c(-c3ccccc3)n12	5
108	CNCCCOc1ccc(C)cc1OC	1
109	O=C(c1cc(S(=O)(=O)Nc2ccccc2F)c(Cl)cc1Cl)N1CCN(CCO)CC1	14
110	Cc1ccc(C(=O)OCC(=O)NCCN2C(=O)CSC2=O)cc1	6
111	N#CCc1ccc(NS(=O)(=O)c2cccs2)cc1	10
112	CC(C)N(CCNC(=O)c1oc(=O)c2ccccc2c1-c1ccccc1)Cc1ccco1	10

Continuation:
entry	SMILES	Biofilm kill mix
113	CCn1c(CNC(=O)COc2ccc(C(C)C)cc2)nnc1SCC(=O)NC1CCCCC1C (centres undefined)	13
114	COc1ccc(C2/C=C\CN(C(=O)CC(C)C)CC(=O)N2Cc2ccc(F)cc2)cc1 (centres undefined)	-2
115	CCc1nc2c(sc3nc4c(cc32)COC(C)(C)C4)c(=O)n1CCN(CC)CC	16
116	O=C(NC1CCCCC1)C(c1cccnc1)N(C(=O)c1csnn1)C1CCCC1 (centres undefined)	7
117	O=C(c1ccccc1)N1N=C(c2ccccc2)CC1c1ccccc1[N+](=O)[O-] (centres undefined)	11
118	CN(C)C(=O)/C(=C\c1ccncc1)NC(=O)c1ccccc1	7
119	N/C(=N\OC(=O)c1cc(-c2ccccc2)nc2ccccc12)c1cccnc1	13
120	O=C(CN(c1ccc(Cl)cc1)S(=O)(=O)c1ccc(Cl)c([N+](=O)[O-])c1)NCCc1ccccc1	11
121	O=C(O)c1ccc(COc2ccccc2/C=C2/NC(=O)N(c3cccc(Cl)c3)C2=O)cc1	9
122	COc1ccccc1C(=O)NCC(=O)N/N=C/c1cc(Br)ccc1OCc1ccccc1	-3
123	O=C1CCC(=O)N1CCSC(=S)N1CCOCC1	21
124	COCc1cc(=O)[nH]c2c1c(-c1ccccc1)nn2C	13
125	Nc1nnc(SCC(=O)OCC(=O)NC2CCCCC2)s1	17
126	CCOCCCNC(=S)Nc1ccc(S(N)(=O)=O)cc1	0
127	COc1ccc(NC(=O)Nc2ccc(F)c(F)c2)c(OC)c1	8
128	Cc1c(C(C)C)c(=O)n(-c2ccc(S(=O)(=O)N3CCOCC3)cc2)n1C	23
129	COc1ccc(CCNC(=O)CSc2nc3[nH]ncc3c(=O)n2-c2ccc(C)c(Cl)c2)cc1OC	13
130	Oc1ccccc1N1CCN(C(=S)NCCc2ccccc2)CC1	6
131	COc1ccc(NS(=O)(=O)c2cccc(NC(=O)CCC(=O)c3ccc(Cl)cc3)c2)cc1	20
132	Cc1cc(-c2nc(C)c(-c3nnc(SCC(=O)Nc4ccc(Cl)cc4)n3C)s2)no1	21
133	Cc1ccc(C)c(N(CC(=O)NN=C2CCN(C)CC2)S(=O)(=O)c2ccccc2)c1	8
134	COc1ccccc1OP(=O)(O)Oc1ccccc1OC	3
135	O=Cc1ccc(-c2ccc(F)cc2)o1	11
136	O=C1C(Nc2ccccc2)=C2CCCC=C2N1c1ccccc1	1
137	CCN(CC)CCCNC(=O)Cn1ccc2ccccc2c1=O	5
138	CCOc1ccc(CC(=O)NNC(=S)Nc2ccc(OC)c(OC)c2)cc1	16
139	CCCCOC(=O)c1cc(=O)[nH]c2ccc(C)cc12	20
